AF4-AF9 inh = inhibitors of AF4 peptide binding to AF9, primary screen, biochemical, AlphaScreen, biotin-AF4 peptide, FLAG-AF9, single point; inhibition, % at 10 µM; AID 651704, 2012; Protein AF-9 (Homo sapiens), P42568; 350,000 compounds, 0.47% hits;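 active means every replicate reaching a set inhibition limit, whatever the replicate mean, cut at about 25% in these data; inconclusive means mean inhibition reaches that limit but some replicates miss it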;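 further: 0% = plate neutral control median and 100% = total signal loss; the record names both 10 and 1 µM as test concentration; the first replicate is given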
Target sequence (P42568 whole entry, looked up): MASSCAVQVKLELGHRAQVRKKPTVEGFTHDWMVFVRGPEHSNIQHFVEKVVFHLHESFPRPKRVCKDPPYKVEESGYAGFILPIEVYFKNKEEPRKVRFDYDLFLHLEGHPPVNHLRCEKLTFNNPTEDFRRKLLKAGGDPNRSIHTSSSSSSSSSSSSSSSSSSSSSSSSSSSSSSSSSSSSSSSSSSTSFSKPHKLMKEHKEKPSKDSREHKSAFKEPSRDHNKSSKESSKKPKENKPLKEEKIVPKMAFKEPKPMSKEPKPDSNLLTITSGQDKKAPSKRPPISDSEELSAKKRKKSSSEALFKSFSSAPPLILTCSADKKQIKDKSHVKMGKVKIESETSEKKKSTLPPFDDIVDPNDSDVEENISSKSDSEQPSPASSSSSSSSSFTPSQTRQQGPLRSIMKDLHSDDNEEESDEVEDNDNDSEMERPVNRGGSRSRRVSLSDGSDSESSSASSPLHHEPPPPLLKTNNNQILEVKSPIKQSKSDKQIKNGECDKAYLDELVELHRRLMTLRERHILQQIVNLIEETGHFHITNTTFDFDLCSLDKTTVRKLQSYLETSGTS
LANA-H2A inh = blockers of LANA interaction with H2A/H2B – biochemical, FP readout, HTS, primary screen; Protein LANA1 (Human herpesvirus 8 type P (isolate GK18)), Q9QR71; cell-free LANA-H2A/H2B peptide, fluorescence polarization; inhibition, % (no concentration beside the values); 320,000 compounds, 0.6% hits; in the data active means inhibition mostly above about 10%, no sharp cut-off; inactive means mostly below about 6.7%;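 further: stock transfer was 7.5 nL into about 10 µL; 0% = median of vehicle wells and 100% = median of positive control wells; one replicate is shown; the record names a cut of 25% in any replicate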
Calb FLC = C. albicans growth inhibition with fluconazole, primary screen, CaCi-2 strain, Alamar Blue fluorescence; C. albicans CaCi-2 (fluconazole-resistant clinical isolate) + fluconazole, 48 h; growth inhibition, % (test concentration not listed); 300,000 compounds, 0.57% hits; AID 1979, 2009;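 active means most replicates above 75%; inconclusive means exactly half above 75%; inactive means most below 75%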;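 further: all wells also contain fluconazole at 8 µg/ml as a sub-toxic cotreatment; 0% = median of DMSO wells and 100% = median of geldanamycin control wells; wells of about 8 µL received 7.5 nL stock; the first replicate is given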
T cruzi inh = inhibitors of intracellular T. cruzi growth, primary screen, luminescence, NIH3T3 host cells | inhibition, % (concentration not given with the values) | AID 1885, 2009 | 300,000 compounds, 1.4% hits | T. cruzi beta-gal in NIH3T3, 90 h;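 active means mean inhibition across valid replicates above about 55%, limit read from the data; inconclusive means mean below that limit but half or more replicates reach it; inactive means mean below it, under half of replicates reach it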;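 further: signal also drops with host cell toxicity which is not excluded here; 0% = plate median of DMSO wells and 100% = zero luminescence signal; higher percent means less beta-gal luminescence so fewer parasites; stock transfer was 50 nL into about 50 µL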
Bfl-1 A1 inh = caspase 3/7 activation in MEF A1-2A-BIM cells, primary screen, A1 inhibitor project, cell-based, luminescence, HTS. AID 2462, 2010. Caspase-Glo 3/7 luminescence, 3 h; percent of clofoctol response, vehicle zero. caspase activation, % (concentration not given with the values). 330,000 compounds, 0.066% hits;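 active means over half of replicate activation scores above 10%, or exactly half above 10 with the replicate mean above 10; inconclusive means replicate mean below 10 yet half the replicates above 10; inactive means over half of replicates below 10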;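 further: wells of about 30 µL received 50 nL stock; many hits fall short of the cut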
RanGTP-Imp inh = inhibitors of RanGTP-importin-beta interaction, primary screen, biochemical, FRET, CFP-Ran, YFP-importin-beta, homogeneous. Ran GTPase (GTP-bound) - importin-beta complex. cell-free CFP-Ran/YFP-importin-beta FRET ratio. inhibition, % (no concentration beside the values). 300,000 compounds, 1.1% hits. AID 2216, 2009;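 active means most replicates above 15%; inconclusive means exactly half above 15%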;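 further: 0% = DMSO wells and 100% = Ran loaded with GDP instead of GTP; wells of about 40 µL received 100 nL stock; the first replicate is given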
Vif A3G = inhibitors of Vif binding to APOBEC3G peptide, primary screen, biochemical, TR-FRET, GST-Vif 1-94, biotin-A3G peptide, dose response retest (AID 1117319) | inhibition, %, or IC50 in µM where a hit was titrated | Virion infectivity factor (Human immunodeficiency virus type 1 group M subtype B (isolate … | TR-FRET GST-Vif / biotin-A3G peptide binding; higher % means a stronger effect; test concentration not given here; strong numbers were not always called active | 260,000 compounds, 0.57% hits;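 active means above the screen mean plus three standard deviations and confirmed in dose response; inconclusive means results disagree or hit not tested in dose response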;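 further: Vif residues 1-94 fused to GST binding biotinylated APOBEC3G peptide 110-148; 0% = full assay without inhibitor and 100% = GST in place of GST-Vif; retest series ran down from 100 µM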
Beta apoptosis = inhibitors of cytokine-induced beta cell apoptosis, primary screen, luminescence; 300,000 compounds, 0.8% hits; protection from apoptosis, % (test concentration not listed); INS-1E cytokine-induced death, ATP luminescence, 48 h; percent of positive-control rescue, neutral wells zero; AID 435005, 2010;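 active means all replicates at 75% or more, or half of them and the mean; inconclusive means half reach 75% but not the mean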;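 further: 0% = cytokine-treated negative control wells and 100% = positive control rescue; higher means more ATP so stronger rescue from cytokine killing; wells of about 40 µL received 100 nL stock; the first replicate is given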
An asterisk follows results filed as active.

How did O=C(O)C1CCC1C(=O)Nc1nc(-c2ccc(Cl)s2)cs1 (stereo not drawn) do in these assays?
AF4-AF9 inh: -1.8; LANA-H2A inh: -4.5; Calb FLC: 2; T cruzi inh: -9; Bfl-1 A1 inh: 0.1; RanGTP-Imp inh: 1.9; Vif A3G: -5%; Beta apoptosis: -4

Results for C/C(N)=C(/C#N)C(=O)CSc1cc(C)c2cc(C)cc(C)c2n1 ?
AF4-AF9 inh: -3.3; LANA-H2A inh: -1.1; Calb FLC: -21; T cruzi inh: 62*; Bfl-1 A1 inh: 1.1; RanGTP-Imp inh: 3.4; Vif A3G: -56%; Beta apoptosis: -4

Results for CC(C)CNC(=O)CN1C(=O)NC(Cc2c[nH]c3ccccc23)C1=O (stereo not drawn) ?
AF4-AF9 inh: -1.0; LANA-H2A inh: 1.0; Calb FLC: -1; T cruzi inh: -4; Bfl-1 A1 inh: -0.3; RanGTP-Imp inh: -4.0; Vif A3G: 0%; Beta apoptosis: 2

Results for Cc1noc(NC(=O)c2ccc(Cl)cc2)c1Cl ?
AF4-AF9 inh: -2.5; LANA-H2A inh: -0.4; Calb FLC: 23; T cruzi inh: 14; Bfl-1 A1 inh: -0.8; RanGTP-Imp inh: 0.0; Vif A3G: -3%; Beta apoptosis: -6

How did COCCSc1nnc(NC(=O)C2CCCO2)s1 (stereo not drawn) do in these assays?
LANA-H2A inh: 1.7; Calb FLC: -16; T cruzi inh: 3; Bfl-1 A1 inh: 0.3; RanGTP-Imp inh: -4.8; Vif A3G: 21%; Beta apoptosis: 0

How did CCOC(=O)c1c(NC(=O)CN2C(=O)c3ccccc3C2=O)sc(Cc2ccc3c(c2)OCO3)c1C do in these assays?
AF4-AF9 inh: -1.4; LANA-H2A inh: 2.5; Calb FLC: -2; T cruzi inh: 2; Bfl-1 A1 inh: -0.1; RanGTP-Imp inh: inconclusive; Vif A3G: inconclusive; Beta apoptosis: -5

What do the screens show for `COc1cccc(-c2ccc(C#N)c(OC(=O)c3ccc(Cl)cc3)n2)c1`?
LANA-H2A inh: -2.3; Calb FLC: 1; T cruzi inh: 3; Bfl-1 A1 inh: -0.2; RanGTP-Imp inh: 2.3; Vif A3G: 3%; Beta apoptosis: -2

Results for O=C(COC(=O)CNC(=O)c1ccco1)Nc1ccc(F)cc1 ?
AF4-AF9 inh: -3.1; LANA-H2A inh: 0.1; Calb FLC: -14; T cruzi inh: -2; Bfl-1 A1 inh: 0.9; Vif A3G: 0%; Beta apoptosis: -10

Results for Cc1ccc(C(=O)Nc2cccc3cccnc23)cc1Br ?
LANA-H2A inh: 2.4; Calb FLC: -17; T cruzi inh: 3; Bfl-1 A1 inh: -2.4; RanGTP-Imp inh: -6.2; Beta apoptosis: 0

Results for COc1cccc(CC2CC(=O)N(c3ccc4c(C)cc(=O)oc4c3)C2=O)c1 (stereo not drawn) ?
AF4-AF9 inh: -1.2; LANA-H2A inh: -18; Calb FLC: 2; T cruzi inh: -16; Bfl-1 A1 inh: -1.0; RanGTP-Imp inh: 1.7; Vif A3G: -5%; Beta apoptosis: 1

How did O=C(Nc1ccc(Cl)cc1)Nc1nnc(Cc2ccc([N+](=O)[O-])cc2)s1 do in these assays?
AF4-AF9 inh: 0.7; LANA-H2A inh: 6.3; Calb FLC: -5; T cruzi inh: 9; Bfl-1 A1 inh: -0.6; RanGTP-Imp inh: 0.9; Vif A3G: 16%; Beta apoptosis: -3

How did COc1ccc(S(=O)(=O)NC(CC(=O)NCc2ccccc2OC)c2ccco2)cc1 (stereo not drawn) do in these assays?
LANA-H2A inh: -1.1; Calb FLC: -1; T cruzi inh: -7; Bfl-1 A1 inh: -0.5; RanGTP-Imp inh: 1.9; Vif A3G: inconclusive; Beta apoptosis: -2

How did Cc1oc(-c2cccs2)nc1CN1CCN(C2CCCC2)C(CCO)C1 (stereo not drawn) do in these assays?
AF4-AF9 inh: 1.9; LANA-H2A inh: -0.6; Calb FLC: 1; T cruzi inh: 1; Bfl-1 A1 inh: -0.4; RanGTP-Imp inh: -2.2; Beta apoptosis: -2

How did CCCCC1=CC2=CC(=O)C(C)(OC(=O)CC)C(=O)C2=CN1CCc1c[nH]c2ccccc12 (stereo not drawn) do in these assays?
AF4-AF9 inh: -13; LANA-H2A inh: 2.7; Calb FLC: 12; T cruzi inh: -5; Bfl-1 A1 inh: 0.2; RanGTP-Imp inh: -1.6; Vif A3G: 19%; Beta apoptosis: -7

How did CCOC(=O)N1CCC(N2Cc3cccc(C(=O)Nc4ccc(N(CC)CC)cc4C)c3C2=O)CC1 do in these assays?
AF4-AF9 inh: 43*; LANA-H2A inh: 8.2; Calb FLC: 16; T cruzi inh: 11; Bfl-1 A1 inh: 0.7; RanGTP-Imp inh: inconclusive; Beta apoptosis: 4

How did COc1ccc(-c2cn(-c3ccc(C)cc3)c(=O)n2CC(=O)Nc2ccc(OC)cc2OC)cc1 do in these assays?
LANA-H2A inh: -2.3; Calb FLC: -11; T cruzi inh: 18; Bfl-1 A1 inh: 1.4; RanGTP-Imp inh: 0.7; Vif A3G: 5%; Beta apoptosis: -3

Results for CC1=Nn2c(nnc2-c2cccs2)SC1 ?
LANA-H2A inh: -1.6; Calb FLC: -8; T cruzi inh: -16; Bfl-1 A1 inh: -0.4; RanGTP-Imp inh: 3.9; Vif A3G: 3%; Beta apoptosis: 0

How did CCc1ccc(OCC(O)CN2CCCC2)cc1 (stereo not drawn) do in these assays?
AF4-AF9 inh: -0.7; LANA-H2A inh: 4.1; Calb FLC: -6; T cruzi inh: -17; Bfl-1 A1 inh: 1.9; RanGTP-Imp inh: -1.2; Beta apoptosis: -3

How did COc1ccc(-c2[nH]ncc2CN(C)Cc2c(C)n[nH]c2C)c(OC)c1 do in these assays?
AF4-AF9 inh: 0.6; LANA-H2A inh: -4.0; Calb FLC: 0; T cruzi inh: -3; Bfl-1 A1 inh: -1.0; RanGTP-Imp inh: -2.1; Vif A3G: inconclusive; Beta apoptosis: -2

What do the screens show for `COc1ccc(NC(=O)C(NC(=O)Cc2cccs2)c2ccccc2)cc1` (stereo not drawn)?
AF4-AF9 inh: -9.5; LANA-H2A inh: 0.8; Calb FLC: -1; T cruzi inh: -12; Bfl-1 A1 inh: 0.0; RanGTP-Imp inh: 2.5; Vif A3G: 13%; Beta apoptosis: -8

What do the screens show for `CC(=O)Nc1ccc(OC(=O)c2cc3cc(Br)ccc3oc2=O)cc1`?
LANA-H2A inh: -2.5; Calb FLC: 1; T cruzi inh: -10; Bfl-1 A1 inh: 0.4; RanGTP-Imp inh: 2.4; Vif A3G: -7%; Beta apoptosis: -14

What do the screens show for `COc1ccc(C)cc1S(=O)(=O)Nc1cccc(-c2ccc(N3CCCCCC3)nn2)c1`?
AF4-AF9 inh: 2.4; LANA-H2A inh: -3.1; Calb FLC: 1; T cruzi inh: -7; Bfl-1 A1 inh: 0.5; RanGTP-Imp inh: 3.0; Beta apoptosis: 11

How did CCOc1ccc(Oc2ccc(C(F)(F)F)cc2N)cc1 do in these assays?
LANA-H2A inh: -3.4; Calb FLC: -3; T cruzi inh: 4; Bfl-1 A1 inh: 0.8; RanGTP-Imp inh: 0.1; Vif A3G: 1%; Beta apoptosis: -2

What do the screens show for `COc1cc2[nH]c(=S)nc(NCc3cccs3)c2cc1OC`?
AF4-AF9 inh: -2.9; LANA-H2A inh: 1.8; T cruzi inh: -38; Bfl-1 A1 inh: 0.9; Vif A3G: 8%; Beta apoptosis: 0

What do the screens show for `O=C(COC(=O)c1ccc(S(=O)(=O)N2CCCC2)cc1)Nc1cccnc1Cl`?
AF4-AF9 inh: 0.1; LANA-H2A inh: -3.5; Calb FLC: -13; T cruzi inh: 1; Bfl-1 A1 inh: 0.0; RanGTP-Imp inh: 4.0; Vif A3G: 3%; Beta apoptosis: -1

Results for CC1CCC/C(=N\NC(=O)Nc2ccccc2)C1 (stereo not drawn) ?
AF4-AF9 inh: 0.7; LANA-H2A inh: -5.8; Calb FLC: -7; T cruzi inh: -11; Bfl-1 A1 inh: 0.7; RanGTP-Imp inh: 3.9; Beta apoptosis: -2

Results for CC1Cc2ccccc2N1C(=O)CSc1nnc2sc3ccccc3n12 (stereo not drawn) ?
LANA-H2A inh: -5.4; Calb FLC: -3; T cruzi inh: 14; Bfl-1 A1 inh: -0.1; RanGTP-Imp inh: -2.6; Vif A3G: -2%; Beta apoptosis: -2

What do the screens show for `COCCNC(=O)c1ccc(NC(=O)C2(c3ccccc3)CCCC2)cc1`?
AF4-AF9 inh: -4.8; LANA-H2A inh: -4.1; Calb FLC: -9; T cruzi inh: -22; Bfl-1 A1 inh: 0.5; RanGTP-Imp inh: inconclusive; Beta apoptosis: -5

What do the screens show for `CC1=CC(c2ccccc2)NC(=S)N1` (stereo not drawn)?
LANA-H2A inh: -2.2; Calb FLC: 4; T cruzi inh: 2; Bfl-1 A1 inh: -0.5; RanGTP-Imp inh: 6.0; Vif A3G: 5%; Beta apoptosis: -4

Results for CCN(CC(=O)N1CCCCC1)S(=O)(=O)c1ccccc1 ?
AF4-AF9 inh: -0.1; LANA-H2A inh: 0.1; Calb FLC: -17; T cruzi inh: 5; Bfl-1 A1 inh: 0.5; RanGTP-Imp inh: 3.3; Vif A3G: -2%; Beta apoptosis: -3

Results for Cc1ccc(C)c(-n2c(-c3csc(C)c3C)n[nH]c2=S)c1 ?
LANA-H2A inh: 8.7; Calb FLC: 25; T cruzi inh: 12; Bfl-1 A1 inh: 0.9; RanGTP-Imp inh: 0.1; Vif A3G: 7%; Beta apoptosis: 3

Results for COc1ccc(C(C(=O)NC2CCCCC2)N(CC2CCCO2)C(=O)CNC(=O)c2ccco2)cc1 (stereo not drawn) ?
LANA-H2A inh: 1.4; Calb FLC: -4; T cruzi inh: -4; Bfl-1 A1 inh: 0.0; RanGTP-Imp inh: 1.7; Vif A3G: -4%; Beta apoptosis: -9

Results for Cc1ccc(S(=O)(=O)N2CCCCC2CCNC(=O)C(=O)NCCc2ccco2)cc1 (stereo not drawn) ?
AF4-AF9 inh: -0.8; LANA-H2A inh: 1.5; Calb FLC: -5; T cruzi inh: 9; Bfl-1 A1 inh: 0.2; RanGTP-Imp inh: 0.8; Vif A3G: -3%; Beta apoptosis: 12

Results for Cc1cc(OCc2cccc(Cl)c2)c(C)cc1CN1CCOCC1 ?
AF4-AF9 inh: 2.2; LANA-H2A inh: -2.1; Calb FLC: -8; T cruzi inh: 52; Bfl-1 A1 inh: 0.0; RanGTP-Imp inh: 0.1; Vif A3G: 6%; Beta apoptosis: 1

Results for O=C(Oc1nsnc1N1CCOCC1)N1CCCCC1 ?
AF4-AF9 inh: 0.4; LANA-H2A inh: 2.2; Calb FLC: -16; T cruzi inh: 35; Bfl-1 A1 inh: -0.1; RanGTP-Imp inh: 4.4; Vif A3G: -5%; Beta apoptosis: -4

Random draw from the library; about 4.3% have a hit in one of these screens.
